Assay outcomes as filed in PubChem.
PABP FP inh – blocks human PABP binding to poly(A) RNA. 1% of 290,000 active. inhibition, % at 35 µM. fluorescence polarization. P11940;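 active = 50% or more with normal probe brightness, or confirmed in later tests; inconclusive = above 50% with abnormal brightness, or retests that disagree; inactive = below 50% or failed in later tests; about a fifth of its hits are not listed in these tables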;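 also: calls also rest on retests at 20 µM and on dose response follow-up; controls were probe without protein and protein plus probe with vehicle; some compounds called inactive have numbers as strong as hits; many hits fall short of the cut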
Target sequence (P11940 whole entry, looked up): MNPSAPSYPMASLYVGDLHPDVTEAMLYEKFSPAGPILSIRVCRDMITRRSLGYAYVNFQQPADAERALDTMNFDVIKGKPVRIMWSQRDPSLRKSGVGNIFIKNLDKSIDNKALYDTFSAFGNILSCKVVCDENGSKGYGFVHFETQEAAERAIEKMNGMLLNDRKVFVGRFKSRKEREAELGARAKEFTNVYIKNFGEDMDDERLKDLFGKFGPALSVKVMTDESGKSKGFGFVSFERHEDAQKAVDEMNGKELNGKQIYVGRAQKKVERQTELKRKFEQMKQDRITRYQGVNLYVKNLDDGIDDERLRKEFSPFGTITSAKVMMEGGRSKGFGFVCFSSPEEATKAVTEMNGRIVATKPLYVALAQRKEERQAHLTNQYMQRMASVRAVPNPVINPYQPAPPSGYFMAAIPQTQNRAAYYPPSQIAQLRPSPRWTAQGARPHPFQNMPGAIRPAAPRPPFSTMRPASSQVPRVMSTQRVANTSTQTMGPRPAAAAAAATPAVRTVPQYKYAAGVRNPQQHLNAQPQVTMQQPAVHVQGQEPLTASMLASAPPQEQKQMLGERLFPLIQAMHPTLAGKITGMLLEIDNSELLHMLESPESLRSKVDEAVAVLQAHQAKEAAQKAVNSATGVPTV
Rce1 inh – blocks yeast Ras-converting enzyme; yeast membranes, quenched prenylated peptide cleavage fluorescence; Q03530; calls only; 0.27% of 290,000 active;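 active = fall in fluorescence gain of 50% or more versus controls, with final raw signal at or below 3038400; inconclusive = same 50% fall but final raw signal above 3038400; inactive = fall in fluorescence gain under 50%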;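 also: plate controls were neutral control wells for no effect and wells lacking membranes for full effect; tested at 10 µM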
CSC inhib – cancer stem cell inhibition | 1.1% of 300,000 active | cancer stem cell-like cells viability, luminescence | inhibition, % at 7.5 µM;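 active = mean at 75% or more and at least half the replicates too; inconclusive = mean and replicates disagree; tested in HMLE shEcad cells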;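 also: 0% = median of negative and 100% = median of positive control wells; the first replicate is given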
eIF4H inh – inhibitors of RNA binding by human eIF4H | Q15056 | eIF4H fluorescence polarization binding assay | inhibition, % at 35 µM | 0.94% of 290,000 active | AID 2012;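 active = 50% or more with normal probe brightness, or confirmed in later tests; inconclusive = above 50% with abnormal brightness, or retests that disagree; inactive = below 50% or failed in later tests; about a fifth of its hits are not listed in these tables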;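 also: calls also rest on retests at 20 µM and on dose response follow-up; 0% = protein and probe with vehicle and 100% = probe without protein; strong numbers were not always called active; many hits fall short of the cut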
Env fusion inh – blocks HIV Env-driven cell-cell fusion; HeLa-JRFL Env/CEM21 cell fusion, luciferase; inhibition, % at 12.3 µM; 1.1% of 360,000 active; AID 651610;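 active = mean replicate inhibition score of at least 50 and every replicate individually at or above 50; inconclusive = only one of the two criteria met; inactive = mean below 50 and not all replicates reaching 50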;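 also: 0% = plate neutral controls and 100% = maraviroc near 300 nM; one replicate is shown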
MT1-MMP act inh – inhibitors of human MT1-MMP activation; P50281; HT1080 RFP-PRO-GFP cells, GFP/RFP ratio fluorescence, overnight; percent of plate control window, DMSO zero; GFP/RFP ratio change, % at 20 µM; 0.061% of 360,000 active; AID 651647;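 active = GFP/RFP ratio change of at least 30% with cell ATP level not reduced by more than half and red fluorescence within 50% of control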; also: strong numbers were not always called active
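system = RFP-PRO-GFP reporter HT1080 cells | dosing = 20 µM single dose, 1% DMSO | timing = overnight cell settling, then overnight compound exposure, 37 °C, 5% CO2 | read-out basis = GFP/RFP fluorescence ratio | controls = DMSO and RFP-L50D-GFP cell wells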
UUG fidelity – modulators of start codon recognition fidelity in yeast. S. cerevisiae UUG-firefly luciferase reporter, luminescence/redox ratio. activity score, % at 18.7 µM. 0.13% of 350,000 active;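 active = replicate mean at a twofold rise or more, about +100% in these data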;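 also: firefly luciferase made from a UUG start codon reports start codon fidelity; reporter light over untreated wells divided by growth signal over untreated wells; some hits fall short of that in this replicate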
eIF4H inh retest – further read-out of eIF4H inh, marked with its call; inhibition, %; compound at 20 µM; confirmation average;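 mean of two retest wells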
PABP FP inh retest – second read-out of PABP FP inh, no call of its own (marks repeat the call); inhibition, %; compound at 20 µM; confirmation repeats;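 mean of two retest wells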
MT1-MMP act inh RFP – also measured in MT1-MMP act inh; calls as there; RFP signal change, %; measured here: RFP expression control read;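 0 = vehicle wells; hits needed this value within 50% of zero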
* hit, by the source's call; i = inactive; u = inconclusive; x = no result given.

SMILES	PABP FP inh	Rce1 inh	CSC inhib	eIF4H inh	Env fusion inh	MT1-MMP act inh	MT1-MMP act inh RFP	UUG fidelity	others
O=C(NC(=S)Nc1ccc(CN2CCOCC2)cc1)c1ccc(-c2cccc(Cl)c2)o1	-11	i	71	-9	15	4	-15	x
O=C(Cc1ccccc1)NC1CCN(C(=O)NCc2ccccc2)CC1	2	i	0	-1	-52	5	5	-7
COc1ccc(C(=O)CC(=O)C(=O)Nc2cccc([N+](=O)[O-])c2C)cc1	9	i	3	22	-5	0	2	x
COc1cc2cncc(Cc3ccccc3)c2cc1O	x	x	x	x	4	1	-2	-16
COc1c(C)cc(Br)cc1C(=O)NC(=S)Nc1ccc(Cl)c(C(=O)O)c1	13	i	x	-9	8	1	1	-12
COc1ccc(NC(=O)C(OC(=O)c2ccc([N+](=O)[O-])o2)c2ccccc2)cc1Cl (stereo unspecified)	0	i	2	17	3	12	5	x
Cc1nc(C)n(CC(=O)N2CCCC(C(=O)c3cccc4ccccc34)C2)n1 (stereo unspecified)	-4	i	-34	65	13	4	4	x	eIF4H inh retest=-16;PABP FP inh retest=1
CC(=O)c1ccc(-n2c(CCC(=O)O)ccc2-c2ccc(C)cc2)cc1	1	i	-5	5	x	-7	-1	-14
Nc1nonc1C(=O)OCC(=O)c1ccc(Cl)cc1	-6	i	-3	-6	-11	1	1	x
CC(=O)Nc1ccc(Nc2nnc(-c3ccc(O)cc3)c3ccccc23)cc1	-1	i	-11	-1	11	3	10	2
CSc1ccc(S(=O)(=O)N2CCC(C(=O)NCc3ccncc3)CC2)cc1	3	x	-5	-7	-2	2	1	-13
Cc1ccnc2nc(C(=O)NC3=NCCS3)nn12	8	i	-13	-8	x	x	x	-25
C/C(=N\Nc1ccc([N+](=O)[O-])cc1)c1ccc(-n2nncc2C(C)(C)C)cc1	23	i	-4	u	2	-24	3	x
Cc1ccccc1CNC(=O)c1ccccc1NS(C)(=O)=O	-2	i	10	0	3	2	-2	x
COC(=O)C1=C(C)NC(C)=C(C(=O)O[C@@H]2CCCN(Cc3ccccc3)C2)[C@@H]1c1cccc([N+](=O)[O-])c1	x	i	69	x	10	-21	-26	-3
C=CCN1C(=NC(=O)CCCC(=O)O)SC2CS(=O)(=O)CC21 (stereo unspecified)	6	x	8	-9	x	-2	-1	3
Cc1ccc(-n2nc3c(c2NC(=O)C2CCCC2)CS(=O)(=O)C3)cc1	-9	i	-21	-11	-5	-3	5	1
CC(C)c1ccccc1NC(=O)c1cccc(NC(=O)c2ccccc2)c1	3	i	28	-8	-198	-7	-6	-13
O=C1CC(c2ccc(F)cc2)c2cc3c(cc2N1)CCC3 (stereo unspecified)	-9	i	23	-4	24	2	0	-37
CCCn1cc(C(CC(=O)O)C(=O)O)c2ccccc21 (stereo unspecified)	7	i	-2	-1	-9	-6	0	x
O=Cc1ccc(OCC(=O)N2CCOCC2)cc1	-2	i	4	-3	6	-7	-1	x
CCOc1ccc(N(CC(=O)NC2CCCCC2)C(=O)CCC(=O)Nc2ccccn2)cc1	2	i	-3	-8	4	-2	1	x
CCCOc1ccc(N2C(=O)CC(N3CCC(c4nncn4CC)CC3)C2=O)cc1 (stereo unspecified)	2	i	-2	-1	x	3	4	-25
O=C1c2oc3ccccc3c(=O)c2C(c2cccs2)N1CCCN1CCOCC1 (stereo unspecified)	21	i	x	-2	x	-8	-4	-3
O=C(Nc1cccc(-c2cn3cccnc3n2)c1)Nc1ccccc1F	-10	i	-60	1	-12	x	x	-4
SMILES	PABP FP inh	Rce1 inh	CSC inhib	eIF4H inh	Env fusion inh	MT1-MMP act inh	MT1-MMP act inh RFP	UUG fidelity	others
Cc1cn(C(=O)c2ccccc2)c(=S)n1-c1ccc(Cl)cc1	-9	i	5	1	-9	3	3	-7
COc1ccc(C)cc1-n1nnnc1SCc1nc2ccccc2s1	0	i	9	-13	-69	-5	-1	-20
COc1ccc(CCNC(=O)c2cc(C3CC3)on2)cc1OC	1	i	x	-5	12	3	-1	x
COc1ccc(S(=O)(=O)N(C)C[C@H]2Oc3c(NS(=O)(=O)c4cn(C)cn4)cccc3C(=O)N([C@H](C)CO)C[C@@H]2C)cc1	x	x	-33	x	12	-1	5	4
Cc1ccc(C(C)C)c(OCCCCCN2CCOCC2)c1	5	i	-1	-4	3	1	3	-15
Cc1onc(-c2ccccc2)c1C(=O)N=C(N)c1ccc(Cl)cc1	13	i	66	2	-6	0	-4	x
O=C(CCCN1C(=O)c2ccccc2C1=O)Nc1nncs1	2	i	x	3	x	4	-2	6
CC1CSC(N(C(=O)c2ccc(S(C)(=O)=O)cc2)c2ccc(Cl)cc2)=N1 (stereo unspecified)	6	i	-3	-2	4	0	-3	0
CCCC(=O)N1CCN(c2ccc(NC(=O)c3ccc(N4CCCC4)c([N+](=O)[O-])c3)cc2Cl)CC1	x	i	40	x	20	2	-16	-16
O=C(c1ccccc1)C(C(=O)N1CCCCC1)n1ccccc1=O (stereo unspecified)	4	i	2	3	11	1	3	x
CC1CN(c2ccc(Cl)nn2)CC(C)O1 (stereo unspecified)	3	i	-1	-8	-6	-2	3	x
Cc1ccc(C(=O)C2CCNCC2)cc1	13	i	-4	-1	-26	-1	5	-27
CN(/C=C/C(=C\C=[N+](C)c1ccccc1)OCCCS(=O)(=O)[O-])c1ccccc1	u	i	-10	u	2	-2	4	8
CCC1CCCCN1C(=O)Cn1nc([N+](=O)[O-])c(Cl)c1C (stereo unspecified)	-2	x	-6	1	-1	2	4	x
Cc1cccc(Nc2nc(-c3ccc(F)c(C)c3)cs2)n1	-8	i	43	3	-77	-11	-12	-15
Cn1nc(C(F)(F)F)cc1C(=O)Nc1ccc(-c2ccno2)cc1	0	i	4	-8	17	-1	-6	-11
CCOC(=O)C1=C(C)NC(C)=C(C(=O)OCC)C1C(=O)OCC(=O)NCCc1ccc(S(N)(=O)=O)cc1	x	i	0	x	8	-2	-1	-9
CC(C)Sc1nc(N)c2c3c(sc2n1)CN(C)CC3	0	i	40	3	x	-11	-4	-12
COc1ccccc1NC(=S)Nc1ccccn1	17	i	-5	1	-49	-4	0	-24
CC(=O)c1cccc(NC(=O)C2Cc3c(-c4ccccc4)ccnc3O2)c1 (stereo unspecified)	x	x	x	x	22	-8	-24	-16
COc1ccc(OCC(=O)NC(=S)Nc2ccc(N3CCOCC3)c(Cl)c2)cc1	5	i	-10	5	x	-4	-8	-11
O=C(O)c1cccc(-c2csc(C(O)c3ccc(F)c(F)c3)n2)c1 (stereo unspecified)	x	x	x	x	-14	-1	5	-9
c1ccc2c(c1)nc(N1CCCCCC1)c1ccccc12	47	i	40	1	14	-4	-1	x
CC(C)[C@H](NC(=O)c1cccc(S(=O)(=O)N2CCOCC2)c1)C(=O)NCc1ccc(F)cc1	x	x	x	x	-15	5	3	-25
Cc1ccc(S(=O)(=O)N(C)C)cc1-n1c(SCC(=O)Nc2ccccc2)nc2ccccc2c1=O	-11	i	5	-7	-10	-2	-7	x
SMILES	PABP FP inh	Rce1 inh	CSC inhib	eIF4H inh	Env fusion inh	MT1-MMP act inh	MT1-MMP act inh RFP	UUG fidelity	others
Cc1oc(S(=O)(=O)N2CCCC2)cc1C(=O)Nc1ccccc1	-8	x	-7	-1	-5	2	-7	x
Cc1ccccc1NC(=S)NC1CCN(Cc2ccccc2)CC1	3	i	-1	-8	-6	3	2	x
CN(C)C(=O)CCc1ccc2c3c([nH]c2c1)[C@]1(CCC2CCCC2)[C@@H](C(=O)N2CCOCC2)C[C@H](CC(=O)NCCCn2ccnc2)C(=O)N1CC3	x	x	x	x	-47	4	6	-5
O=C(Nc1ccccc1N1CCCCC1)c1ccc(-c2cc(Cl)ccc2Cl)o1	x	x	12	x	-7	3	-3	-13
O=C(N/N=C/c1ccc(-c2ccccc2[N+](=O)[O-])o1)[C@H]1C[C@@H]1c1ccccc1	7	i	14	2	-16	-2	15	x
COc1cccc(C(=O)Nc2ccc(Cl)c(C(F)(F)F)c2)c1	-1	i	35	0	-162	1	-4	-7
CC1=C(C(N)=O)C(c2cccnc2)n2nc(-c3cccc(C)c3)nc2N1 (stereo unspecified)	x	i	0	x	-8	4	5	-16
C=CCOc1ccc(CNn2cn[nH]c2=S)cc1	-2	i	-13	-6	-26	6	2	-17
CCCN1CCC(=NNc2ccc(C(=O)O)cc2)CC1	11	i	-8	-4	-50	5	8	x
COC(=O)C(Cc1c[nH]c2ccccc12)NC(=O)c1cncc(Br)c1 (stereo unspecified)	1	i	-9	3	13	-5	-1	-19
Cc1ccc(S(=O)(=O)N2CCC(C(=O)N[C@@H](C)C(=O)Nc3ccc(F)cc3)CC2)cc1	10	i	6	22	6	2	-2	-17
Cn1ncc([N+](=O)[O-])c1C(=O)Nc1ccc(-c2nc3ccccc3o2)cc1	-8	i	2	-7	-17	7	-4	x
CSc1nc(SCCO)c2sc3nc(-c4ccco4)c4c(c3c2n1)CC(C)(C)OC4	59*	i	x	44	-45	1	0	x
CCc1cc2c(N=Nc3c(O)[nH]c4ccccc34)ncnc2s1	6	i	x	0	x	-4	5	x
CC(=O)Nc1ccc(C2NC(=O)c3ccccc3O2)cc1 (stereo unspecified)	-5	i	3	4	-15	4	7	-10
COc1ccc(CN2C(=O)c3ccccc3C2=O)cc1C(=O)OCC(=O)NC1CCCCC1	-11	i	-6	-6	14	3	-4	4
O=C(Nc1ccc2ccccc2c1)c1ccc(Cl)cc1	3	i	1	-4	-443	-3	1	-13
CC(=NCCc1c(C)[nH]c2ccc(C)cc12)C1=C(O)CC(c2ccccc2)CC1=O (stereo unspecified)	-11	i	64	5	-21	-4	-16	-10
Cc1ccc(C(=O)n2c(-c3ccccc3)cnc2SCC(=O)Nc2ccccc2)cc1	-13	i	4	-2	11	-2	2	x
COc1cc(-c2cc(=O)c3c(O)c(OC)c(OC)c(O)c3o2)ccc1O	10	i	-12	27	x	-12	-4	-6
O=C(OCC(=O)N1CCCC1)c1ccc(O)cc1	-3	i	x	-11	-10	-2	-8	13
O=C(COC(=O)c1cccc(S(=O)(=O)N2CCCCC2)c1)NC1CCCc2ccccc21 (stereo unspecified)	7	i	3	-3	-1	-2	1	x
O=C(CCN1CCN(C/C=C/c2ccccc2)CC1)Nc1cccc(F)c1	-12	i	-2	-2	3	5	1	-14
O=C(Nc1ccccc1)c1ccc(NCc2cccnc2)c(S(=O)(=O)N2CCOCC2)c1	2	x	-2	-6	0	-2	-3	-5
CC(C)OP(=O)(OC(C)C)C(Nc1ccccc1)c1cccc2c1OCO2 (stereo unspecified)	-5	i	x	-3	-8	0	1	x
CN(Cc1ccc(C(C)(C)C)cc1)C(=O)c1ccc2c(=O)n3c(nc2c1)CCC3	x	i	-10	x	2	0	-2	x
C=CCN(C(=O)c1cccc(S(=O)(=O)N2CCN(C)CC2)c1)c1nc(-c2ccccc2)cs1	1	i	4	-1	x	-6	-20	-7
CCCc1cc(=O)n2[nH]c(SCc3ccccc3)nc2n1	5	i	2	0	-38	4	3	-13

Of the compounds above, these have a CF3 group.
SMILES	PABP FP inh	Rce1 inh	CSC inhib	eIF4H inh	Env fusion inh	MT1-MMP act inh	MT1-MMP act inh RFP	UUG fidelity	others
Cn1nc(C(F)(F)F)cc1C(=O)Nc1ccc(-c2ccno2)cc1	0	i	4	-8	17	-1	-6	-11
COc1cccc(C(=O)Nc2ccc(Cl)c(C(F)(F)F)c2)c1	-1	i	35	0	-162	1	-4	-7
